Bioassay records: PubChem BioAssay, several laboratories
Yeast UUG start = alters start codon recognition fidelity in yeast; S. cerevisiae UUG-firefly luciferase reporter, luminescence/redox ratio; activity score, % at 18.7 µM; 0.13% of 350,000 active; AID 602363;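 active = replicate mean at a twofold rise or more, about +100% in these data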;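 also: firefly luciferase made from a UUG start codon reports start codon fidelity; reporter light over untreated wells divided by growth signal over untreated wells; some hits fall short of that in this replicate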
eIF4H inh = inhibitors of RNA binding by human eIF4H | Q15056 | eIF4H fluorescence polarization binding assay | inhibition, % at 35 µM | 0.94% of 290,000 active;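 active = 50% or more with normal probe brightness, or confirmed in later tests; inconclusive = above 50% with abnormal brightness, or retests that disagree; inactive = below 50% or failed in later tests; about a fifth of its hits are not listed in these tables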;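 also: calls also rest on retests at 20 µM and on dose response follow-up; 0% = protein and probe with vehicle and 100% = probe without protein; strong numbers were not always called active; many hits fall short of the cut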
Rce1 inh = inhibitors of yeast Ras-converting enzyme; Q03530; yeast membranes, quenched prenylated peptide cleavage fluorescence; calls only; 0.27% of 290,000 active;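 active = fall in fluorescence gain of 50% or more versus controls, with final raw signal at or below 3038400; inconclusive = same 50% fall but final raw signal above 3038400; inactive = fall in fluorescence gain under 50%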;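 also: plate controls were neutral control wells for no effect and wells lacking membranes for full effect; tested at 10 µM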
Target sequence (Q03530 whole entry, looked up): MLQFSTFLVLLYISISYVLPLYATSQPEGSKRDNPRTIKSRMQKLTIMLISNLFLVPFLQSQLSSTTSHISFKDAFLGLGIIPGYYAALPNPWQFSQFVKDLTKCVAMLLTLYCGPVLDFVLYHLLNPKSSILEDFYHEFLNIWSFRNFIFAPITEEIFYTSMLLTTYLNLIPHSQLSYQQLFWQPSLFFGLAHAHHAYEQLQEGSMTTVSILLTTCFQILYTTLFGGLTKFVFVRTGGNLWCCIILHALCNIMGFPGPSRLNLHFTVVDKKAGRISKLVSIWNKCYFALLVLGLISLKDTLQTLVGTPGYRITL
MT1-MMP act inh = inhibitors of human MT1-MMP activation; GFP/RFP ratio change, % at 20 µM; HT1080 RFP-PRO-GFP cells, GFP/RFP ratio fluorescence, overnight; percent of plate control window, DMSO zero; 0.061% of 360,000 active;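 active = GFP/RFP ratio change of at least 30% with cell ATP level not reduced by more than half and red fluorescence within 50% of control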; also: strong numbers were not always called active
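Compound: 20 µM single dose, 1% DMSO / System: HT1080 RFP-PRO-GFP cells / Controls: DMSO and RFP-L50D-GFP cell wells / Read-out basis: GFP/RFP fluorescence ratio / Schedule: overnight compound exposure at 37 °C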
PABP polyA inh = PABP-poly(A) binding inhibition; P11940; PABP-poly(A) RNA binding, fluorescence polarization; inhibition, % at 35 µM; 1% of 290,000 active;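 active = 50% or more with normal probe brightness, or confirmed in later tests; inconclusive = above 50% with abnormal brightness, or retests that disagree; inactive = below 50% or failed in later tests; about a fifth of its hits are not listed in these tables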;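 also: calls also rest on retests at 20 µM and on dose response follow-up; controls were probe without protein and protein plus probe with vehicle; some compounds called inactive have numbers as strong as hits; many hits fall short of the cut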
HIV Env fusion = inhibitors of HIV Env-mediated cell fusion; inhibition, % at 12.3 µM; AID 651610; 1.1% of 360,000 active; HeLa-JRFL Env/CEM21 cell fusion, luciferase;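 active = mean replicate inhibition score of at least 50 and every replicate individually at or above 50; inconclusive = only one of the two criteria met; inactive = mean below 50 and not all replicates reaching 50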;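 also: 0% = plate neutral controls and 100% = maraviroc near 300 nM; one replicate is shown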
CSC inhib = blocks cancer stem cells. cancer stem cell-like cells viability, luminescence. inhibition, % at 7.5 µM. 1.1% of 300,000 active;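 active = mean at 75% or more and at least half the replicates too; inconclusive = mean and replicates disagree; tested in HMLE shEcad cells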;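 also: 0% = median of negative and 100% = median of positive control wells; the first replicate is given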
PABP polyA inh retest = further read-out of PABP polyA inh, marked with its call; inhibition, %; compound at 20 µM; confirmation repeats;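 mean of two retest wells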
MT1-MMP act inh RFP = further read-out of MT1-MMP act inh, marked with its call; RFP signal change, %; measured here: RFP expression control read;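 0 = vehicle wells; hits needed this value within 50% of zero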
Numbers without * were called inactive; i = inactive; ? = inconclusive; · = no result given. No enrichment for hits; about 3% have a hit in one of these screens.

SMILES	Yeast UUG start	eIF4H inh	Rce1 inh	MT1-MMP act inh	MT1-MMP act inh RFP	PABP polyA inh	HIV Env fusion	CSC inhib	others
CCNc1ccc(C(=O)OC(C(=O)NC(N)=O)C(C)C)cc1[N+](=O)[O-] (centres undefined)	·	-5	i	-5	-3	3	-18	·
COc1ccc(S(=O)(=O)N(C)CC(=O)NCCCN2CCOCC2)cc1Cl	-5	-6	i	3	1	1	-6	-13
COc1cc(C2=Nc3c(c(C)nn3-c3ccccc3)P(=O)(N3CCOCC3)O2)cc(OC)c1OC (centres undefined)	9	-3	i	0	4	-12	·	4
Cc1nc(NC(=O)/C=C/c2ccccc2)sc1C(=O)NCCO	-3	-10	i	0	1	7	-5	-12
CC(=O)NC(CCS(C)(=O)=O)C(=O)Nc1cccc(C)c1 (centres undefined)	-19	-9	i	0	2	5	-68	-5
COc1cc(SC)ccc1C(=O)OCC(=O)NCCC1=CCCCC1	-3	·	i	5	-1	·	6	-6
COc1ccccc1CNC(=O)C1CCC(=O)N1C(C)C (centres undefined)	0	-4	i	-2	-4	5	-6	-6
CCN(CC)C(=O)[C@H]1C[C@H](CC(=O)NCCCn2ccnc2)C(=O)N2CCc3c([nH]c4ccc(Cl)cc34)[C@]12C	-15	·	·	4	4	·	8	·
COc1ccc(OC)c(C2SCCN2S(C)(=O)=O)c1 (centres undefined)	-23	-10	i	-5	4	3	-14	-12
CCCOc1cccc(C(=O)Nc2nnn(CCC)n2)c1	-3	-2	i	4	1	-4	·	-10
CCCCCCN1C[C@@H](O)[C@H](n2cc(-c3ccc(F)cc3)nn2)C[C@@H]1c1ccc(OC)cc1	-2	·	·	5	7	·	-46	·
CN1CCN(CCc2cn3ncc(C#N)c3nc2-c2ccc(F)cc2)CC1	7	6	i	-2	7	4	7	-11
CC1CCN(S(=O)(=O)c2nnc(NC(=O)c3cccc([N+](=O)[O-])c3)s2)CC1	-25	2	i	-11	-9	16	·	16
O=C(CCS(=O)(=O)c1ccccc1)Nc1nc2cc3c(cc2s1)OCCO3	-8	-13	i	-5	-3	-4	-5	-3
CC(=O)c1ccc(S(=O)(=O)Nc2cccc(-c3ccc(N4CCOCC4)nn3)c2)cc1	1	·	i	5	-3	·	-21	11
COCCOC(=O)c1c(NC(=O)CN2CCc3ccccc32)sc(C(N)=O)c1C	-11	-1	i	-1	-2	9	11	9
CCOc1c2ccc(C(=O)NCCCCc3ccccc3)cc2nn1CC	-20	5	i	0	0	-2	2	-18
c1coc(C2=Nc3cccc4cccc(c34)N2)c1	15	?	·	6	3	65	-5	8	PABP polyA inh retest=24
Cc1cccc(OCC(=O)N/N=C/c2cn[nH]c2-c2ccc(Cl)c(Cl)c2)c1	-9	5	i	-1	-10	5	·	18
c1ccc(CSc2nnc3c4ccccc4c4ccccc4c3n2)cc1	·	-6	i	·	·	19	·	-16
O=C(NNC(=O)NC1CCCCC1)NC1CCCCC1	·	-4	i	0	1	-2	-9	-6
COc1nc(N(C)C)nc(N(C#N)CCOC(C)=O)n1	·	3	i	4	3	6	33	-17
CCOc1cc(N2CCOCC2)c(OCC)cc1NC(=O)c1cccc(S(=O)(=O)N2CCOCC2)c1	·	·	·	-1	1	·	20	18
Cc1ccc(N(CC(N)=O)C2SC(=O)NC2=O)cc1 (centres undefined)	·	-8	i	-7	4	-11	-3	-4
CC(C)CCN(C(=S)Nc1cccc(F)c1)C(C)c1cccs1 (centres undefined)	-19	-6	i	0	2	-5	17	5
Cc1ccc(-c2nnc(-c3ccccc3)c(N3CCOCC3)n2)cc1	-17	-9	i	-2	-3	-15	-134	12
CN(C)S(=O)(=O)N1CCN(CC(=O)Nc2ccc(F)cc2)CC1	-20	0	i	-1	0	-6	5	-2
Cc1ccc(S(=O)(=O)NCCC(=O)N2CCCCCCC2)cc1	7	·	i	3	2	·	7	-4
COc1ccc(CO/N=C/c2c(C)[nH]c(=O)[nH]c2=O)cc1	-14	2	i	3	7	4	·	·
COc1cccc(CN(Cc2ccco2)C(c2ccc(F)cc2)c2nnnn2C(C)(C)C)c1 (centres undefined)	1	1	i	-12	-17	9	·	65

Arranged by molecular weight (highest first): some entries from above
SMILES	Yeast UUG start	eIF4H inh	Rce1 inh	MT1-MMP act inh	MT1-MMP act inh RFP	PABP polyA inh	HIV Env fusion	CSC inhib	others
CN(C)S(=O)(=O)N1CCN(CC(=O)Nc2ccc(F)cc2)CC1	-20	0	i	-1	0	-6	5	-2
Cc1ccc(S(=O)(=O)NCCC(=O)N2CCCCCCC2)cc1	7	·	i	3	2	·	7	-4
COc1ccc(CO/N=C/c2c(C)[nH]c(=O)[nH]c2=O)cc1	-14	2	i	3	7	4	·	·
O=C(NNC(=O)NC1CCCCC1)NC1CCCCC1	·	-4	i	0	1	-2	-9	-6
Cc1ccc(N(CC(N)=O)C2SC(=O)NC2=O)cc1 (centres undefined)	·	-8	i	-7	4	-11	-3	-4

Other results
SMILES	Yeast UUG start	eIF4H inh	Rce1 inh	MT1-MMP act inh	MT1-MMP act inh RFP	PABP polyA inh	HIV Env fusion	CSC inhib	others
O=c1c2ccccc2nc2n1C(CSCc1cccc(C(F)(F)F)c1)CS2 (centres undefined)	-12	-13	i	4	-27	-7	·	16
COc1ccc(-n2c(CN3CCC(C)CC3)nc3ccc([N+](=O)[O-])cc3c2=O)c(OC)c1	·	-6	i	-6	-1	-2	7	-7
CCOC(=O)C(NCCCO)c1ccccc1 (centres undefined)	·	5	i	7	1	11	·	-6
O=C(Nc1ccc(N2CCCCCC2)cc1)c1ccc[nH]1	-19	·	·	2	1	·	-173	27
COC(=O)c1ccc2c(=O)n(CCN3CCOCC3)c(SCC(=O)Nc3ccccc3Cl)nc2c1	-5	1	i	-6	-3	0	-2	-18
COc1ccc(-c2ccc(=O)n(Cc3ccc([N+](=O)[O-])cc3)n2)cc1	·	-1	i	3	-3	-11	-3	0
CCOc1ccccc1N(CC(=O)N/N=C/c1cc(Br)ccc1OC)S(C)(=O)=O	·	1	i	-7	-3	8	-6	3
COc1ccc(NC(=O)N[C@@H](Cc2ccccc2)C(=O)NN)cc1	·	9	i	-2	2	1	18	-3
O=C(Cn1nnc(-c2ccc(Cl)cc2)n1)NCC1CCCCC1	-12	-14	·	3	0	-8	·	-5
CCOC(=O)C(CC)n1nc(C)n2c(cc3sccc32)c1=O (centres undefined)	-10	1	i	-3	-2	-6	11	-5
CC(=O)c1ccc(OCc2ccc(C(=O)c3ccccc3)cc2)cc1	·	-4	i	-11	-22	1	11	11
CCOC(=O)C1CCCN(Cc2c(F)cccc2Cl)C1 (centres undefined)	18	-7	i	-5	-3	18	·	-8
COC(=O)CCC(=O)N1CCCC(C(=O)c2cc(F)ccc2F)C1 (centres undefined)	-12	-4	i	-1	-2	-8	4	-5
COC1CCN(C(=O)c2ccc(OC3CCN(CCc4ccccc4)CC3)cc2)CC1	0	-2	i	1	3	-10	-88	-5
O=P(O)(Cc1ccccc1)c1ccccc1	-12	·	·	3	0	·	17	·
COc1ccc(C(=O)CC(Sc2ccccc2N)c2ccc(OC)cc2)cc1 (centres undefined)	-23	·	·	5	-1	·	-29	·
Oc1cc(Nc2cccnc2)cc2cccnc12	-28	·	·	4	5	·	12	·
CC12CN3CC(C)(CN(C1)C3c1ccc(F)cc1)C2 (centres undefined)	-10	-4	i	-3	1	1	4	-8
Cc1ccc(N2C(=O)[C@@H]3Cc4ccccc4CN3C2=O)cc1	-8	-5	i	-4	-9	-6	-63	-6
COc1ccc(-c2nc(N)n(C(C)=O)n2)cc1	-15	5	i	0	7	-8	·	-27
CCNC(=O)Nc1cc(S(=O)(=O)N2CCOCC2)ccc1N1CCCCC1	0	·	·	0	1	·	-453	·
Cc1nc(NC(=O)C(C)(C)C)sc1C(=O)Cn1cc(CCc2ccccc2)nn1	2	·	·	-4	-5	·	-10	·
CCOc1ccccc1N1CCN(CC(=O)N(C2CCCC2)C2CCS(=O)(=O)C2)CC1 (centres undefined)	-21	·	·	-4	-1	·	3	-16
Cc1ccc(C)c(-c2ccc(=O)n(Cc3cccc(Br)c3)n2)c1	-5	7	i	0	-7	12	12	26
COc1ccc(-n2c(SCC(=O)NCC3CCCO3)nc3c([nH]c4ccccc43)c2=O)cc1 (centres undefined)	·	-5	i	-6	-5	11	12	6
CCOC(=O)C1=NNC2(c3ccc(C)cc3)C(=O)N(c3ccccc3)C(=O)C12 (centres undefined)	-12	-14	i	-4	0	0	-4	16
COc1ccc(-c2csc(NC(=O)CN3C(=O)NC4(CCCC4)C3=O)n2)c(OC)c1	-18	·	i	4	1	·	·	-10
O=C(COC(=O)c1cccc(S(=O)(=O)N2CCc3ccccc32)c1)NCc1ccco1	·	3	i	4	1	-7	-5	0
Cc1cc(C)c(C(=O)Nn2c(C)nc3ccccc3c2=O)cc1C	-13	0	i	1	1	5	18	-11
Cn1c(N)cc(=O)n(C)c1=S	-25	·	·	-1	2	·	-18	·
CCOc1cccc2cc(C(=O)N3CCOCC3)c(=O)oc12	-15	1	i	-1	5	-1	-3	2
C(=N\Nc1nc(-c2ccccc2)cs1)/c1ccco1	-10	-2	i	-1	-3	4	-72	40
Fc1ccccc1CSc1nnc(-c2cccs2)o1	·	-14	i	3	3	-10	·	-9
CNc1c([N+](=O)[O-])ncn1C	-18	2	i	1	4	8	·	6
Cc1ccc(S(=O)(=O)NCC(=O)OCC(=O)c2c(N)n(C)c(=O)n(C)c2=O)cc1	·	-9	i	4	6	12	14	-13
COc1cc(CCC(=O)OCC(=O)Nc2c(Cl)cccc2Cl)cc(OC)c1OC	-2	2	i	3	5	7	-2	8
C=CCOc1ccc(/C(O)=C2/C(=O)C(=O)N(CCCN3CCOCC3)C2c2ccc(OC)cc2)cc1 (centres undefined)	-15	3	·	7	3	-4	19	0
Cc1c(N2C(=O)/C(=C3\C(=O)N(CC(=O)O)c4ccccc43)SC2=S)c(=O)n(-c2ccccc2)n1C	9	1	i	-4	1	9	-2	14
Cc1sc(NC(=O)C2=COCCO2)c(C(N)=O)c1C	-10	·	i	2	-1	·	·	4
COc1ccc(NC(=O)CN2c3cccc4cccc(c34)S2(=O)=O)c(OC)c1	·	-2	i	1	4	2	·	-3
O=C(O)c1ccccc1OC(C(=O)Nc1cc(Cl)cc(Cl)c1)c1ccccc1 (centres undefined)	-17	-6	i	-6	-5	-4	-1	7
CCCCCCN1C[C@@H](O)[C@H](n2cc(COC(=O)c3ccccc3)nn2)C[C@@H]1c1ccc(Cl)cc1	-28	·	·	-5	-2	·	31	·
CCOC(=O)C1=CN2CCCC[C@@H]2CC1=O	-13	·	·	7	3	·	-4	-6
CC1(C(=O)Nc2ccc3c(c2)OCCO3)CCN1C(=O)C/C=C/c1ccccc1 (centres undefined)	-9	·	·	0	0	·	-10	·
O=C(Cn1ccn(-c2ccc(F)c(Cl)c2)c(=O)c1=O)NCCc1ccccc1	·	·	i	3	0	·	·	-14
Nc1nc(SCC(=O)Nc2ccc(F)cc2)[nH]c(=O)c1NC(=O)c1ccc(F)c(F)c1	-16	-5	i	1	2	-4	-5	-2
Cc1ccc(/C=C(/C#N)C(=O)NC(=O)Oc2ccccc2)cc1	-15	-12	i	2	-2	-10	·	11
CC1CC(C)CN(c2ccc(C(=O)NCc3ccc4c(c3)OCO4)cc2[N+](=O)[O-])C1 (centres undefined)	·	-5	i	0	-6	-3	1	28
O=C(CSc1nc2ccccc2s1)NNC(=S)Nc1ccccc1	-20	-1	i	1	0	15	18	-18
COc1ccc(N(CC(=O)NC2CCCCC2)C(=O)CCC(=O)Nc2nc(C)cs2)cc1	14	-5	i	-5	1	4	12	-11
